# Screens: PubChem, several laboratories
# Beta cell apopt: inhibitors of cytokine-induced beta cell apoptosis, primary screen, luminescence | AID 435005, 2010 | 300,000 tested, 0.8% active | INS-1E cytokine-induced death, ATP luminescence, 48 h; percent of positive-control rescue, neutral wells zero | protection from apoptosis, % (concentration not given with the values);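 active = all replicates at 75% or more, or half of them and the mean; inconclusive = half reach 75% but not the mean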;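 also: 0% = cytokine-treated negative control wells and 100% = positive control rescue; higher means more ATP so stronger rescue from cytokine killing; wells of about 40 µL received 100 nL stock; the first replicate is given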
# RanGTP-Imp inh: inhibitors of RanGTP-importin-beta interaction, primary screen, biochemical, FRET, CFP-Ran, YFP-importin-beta, homogeneous. inhibition, % (test concentration not listed). 300,000 tested, 1.1% active. cell-free CFP-Ran/YFP-importin-beta FRET ratio;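 active = most replicates above 15%; inconclusive = exactly half above 15%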;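 also: 0% = DMSO wells and 100% = Ran loaded with GDP instead of GTP; wells of about 40 µL received 100 nL stock; the first replicate is given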
# T cruzi repl: inhibitors of intracellular T. cruzi growth, primary screen, luminescence, NIH3T3 host cells; 300,000 tested, 1.4% active; inhibition, % (test concentration not listed); T. cruzi beta-gal in NIH3T3, 90 h;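 active = mean inhibition across valid replicates above about 55%, limit read from the data; inconclusive = mean below that limit but half or more replicates reach it; inactive = mean below it, under half of replicates reach it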;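 also: signal also drops with host cell toxicity which is not excluded here; 0% = plate median of DMSO wells and 100% = zero luminescence signal; higher percent means less beta-gal luminescence so fewer parasites; stock transfer was 50 nL into about 50 µL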
# Ecoli rRNA inh: reduced GFP signal of wild-type E. coli, primary screen, bacterial rRNA inhibitor project, GFP/RFP fluorescence, OD600, single point; AID 720706, 2013; E. coli WT GFP vs humanized-ribosome RFP mutants, 24 h; stronger effect = lower value; DMSO median 0, no signal -100; 350,000 tested, 1.6% active; GFP signal change (wild-type ribosome), % (concentration not given with the values);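 active = significant combined selectivity score with lowered wild-type GFP, culture density cut under 30%, mutant RFP and density less affected; inactive = any of these conditions unmet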; also: one replicate is shown; some compounds called inactive have numbers as strong as hits
# A1 inh: caspase 3/7 activation in MEF A1-2A-BIM cells, primary screen, A1 inhibitor project, cell-based, luminescence, HTS | 330,000 tested, 0.066% active | caspase activation, % (concentration not given with the values) | Caspase-Glo 3/7 luminescence, 3 h; percent of clofoctol response, vehicle zero | AID 2462, 2010;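 active = over half of replicate activation scores above 10%, or exactly half above 10 with the replicate mean above 10; inconclusive = replicate mean below 10 yet half the replicates above 10; inactive = over half of replicates below 10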;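 also: wells of about 30 µL received 50 nL stock; many hits fall short of the cut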
# Vif TR-FRET: inhibitors of Vif binding to APOBEC3G peptide, primary screen, biochemical, TR-FRET, GST-Vif 1-94, biotin-A3G peptide, dose response retest (AID 1117319); Virion infectivity factor (Human immunodeficiency virus type 1 group M subtype B (isolate …; TR-FRET GST-Vif / biotin-A3G peptide binding; higher % means a stronger effect; test concentration not given here; strong numbers were not always called active; one-dose inhibition, %; IC50 in µM for titrated hits; 260,000 tested, 0.57% active;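 active = above the screen mean plus three standard deviations and confirmed in dose response; inconclusive = results disagree or hit not tested in dose response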;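 also: Vif residues 1-94 fused to GST binding biotinylated APOBEC3G peptide 110-148; 0% = full assay without inhibitor and 100% = GST in place of GST-Vif; retest series ran down from 100 µM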
# Calb FLC: C. albicans growth inhibition with fluconazole, primary screen, CaCi-2 strain, Alamar Blue fluorescence; AID 1979, 2009; growth inhibition, % (test concentration not listed); 300,000 tested, 0.57% active; C. albicans CaCi-2 (fluconazole-resistant clinical isolate) + fluconazole, 48 h;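 active = most replicates above 75%; inconclusive = exactly half above 75%; inactive = most below 75%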;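 also: all wells also contain fluconazole at 8 µg/ml as a sub-toxic cotreatment; 0% = median of DMSO wells and 100% = median of geldanamycin control wells; wells of about 8 µL received 7.5 nL stock; the first replicate is given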
# MLL AF4-AF9 inh: inhibitors of AF4 peptide binding to AF9, primary screen, biochemical, AlphaScreen, biotin-AF4 peptide, FLAG-AF9, single point | Protein AF-9 (Homo sapiens), P42568 | inhibition, % at 10 µM | 350,000 tested, 0.47% active | AID 651704, 2012;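 active = every replicate reaching a set inhibition limit, whatever the replicate mean, cut at about 25% in these data; inconclusive = mean inhibition reaches that limit but some replicates miss it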;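 also: 0% = plate neutral control median and 100% = total signal loss; the record names both 10 and 1 µM as test concentration; the first replicate is given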
# Target sequence (P42568 whole entry, looked up): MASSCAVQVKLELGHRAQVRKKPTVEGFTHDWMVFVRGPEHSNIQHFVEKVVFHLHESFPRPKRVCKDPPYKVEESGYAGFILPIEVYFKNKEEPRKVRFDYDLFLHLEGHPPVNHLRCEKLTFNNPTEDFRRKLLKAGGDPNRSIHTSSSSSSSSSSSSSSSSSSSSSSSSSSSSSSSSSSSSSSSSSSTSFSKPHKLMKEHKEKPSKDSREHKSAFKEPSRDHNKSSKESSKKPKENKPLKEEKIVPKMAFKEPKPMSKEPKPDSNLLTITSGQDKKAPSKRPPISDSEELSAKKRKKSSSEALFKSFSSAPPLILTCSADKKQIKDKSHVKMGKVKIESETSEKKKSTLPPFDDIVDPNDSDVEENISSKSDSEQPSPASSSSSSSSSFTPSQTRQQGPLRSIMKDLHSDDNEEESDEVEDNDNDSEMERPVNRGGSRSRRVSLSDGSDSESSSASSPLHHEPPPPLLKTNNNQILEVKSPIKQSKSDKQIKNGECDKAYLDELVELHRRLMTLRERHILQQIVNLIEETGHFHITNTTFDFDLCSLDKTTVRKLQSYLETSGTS
# Ecoli rRNA inh OD600: second read-out of Ecoli rRNA inh, no call of its own (marks repeat the call); OD600 change, %; measured here: OD600 growth;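 optical density of the mix in the first replicate; 0 = DMSO median and -100 = no signal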
# Ecoli rRNA inh RFP: recorded beside Ecoli rRNA inh, whose call it bears; RFP signal change, %; measured here: RFP humanized mutant strains;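 first replicate; 0 = DMSO median and -100 = no signal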
# * hit, by the source's call; ? = inconclusive; nt = not tested or not shown. These rows are one share of the data (hit frequency here may not be typical).
SMILES,Beta cell apopt,RanGTP-Imp inh,T cruzi repl,Ecoli rRNA inh,Ecoli rRNA inh OD600,Ecoli rRNA inh RFP,A1 inh,Vif TR-FRET,Calb FLC,MLL AF4-AF9 inh
COc1ccc(C)cc1N(CC(=O)Nc1ccc(S(=O)(=O)N2CCOCC2)cc1)S(C)(=O)=O,-1,-1.5,10,3,-3,0.2,0.3,nt,-7,5.3
CCc1ccc(OCC2c3cc(OC)c(OC)cc3CCN2C(C)=O)cc1 (stereo not given),-2,1.0,7,nt,nt,nt,0.8,-17%,6,nt
CC(C)Oc1ccc(C2NC(=O)NC2=O)cc1 (stereo not given),-2,0.0,-15,nt,nt,nt,-0.4,0%,-3,nt
Cc1ccc(N2CC(NS(=O)(=O)c3cccnc3)CC2=O)cc1C (stereo not given),1,32*,-5,17,5,2.6,-0.1,3%,0,-0.4
Cc1ccc2nc(N3CCC(C(=O)NC4CCCCC4)CC3)sc2c1,4,-4.3,-6,5,0,1.1,1.4,-1%,-7,-3.9
COc1ccc2c(c1)CC[C@@H]1[C@@H]2CC[C@]2(C)C(=O)CC[C@@H]12,4,-0.7,16,nt,nt,nt,0.6,14%,-3,-9.4
CC1=C(C(=O)OC(C)C)C(C)C(C(=O)OC(C)C)=C(C)N1,-8,8.2,20,nt,nt,nt,0.1,29%,0,nt
Cc1ccc(NC(=S)N(CCN2CCCCC2)Cc2ccco2)cc1C,-9,0.2,-5,-6,-7,-1.1,1.4,6%,-16,9.0
Fc1cccc(-c2cc3nc4c(c(N5CCOCC5)n3n2)CCCC4)c1,-6,-1.5,18,nt,nt,nt,0.1,-1%,14,nt
Cc1cccc(NC(=O)Cn2c(=O)n(CC3CCCO3)c(=O)c3ccccc32)c1 (stereo not given),-7,-2.0,-5,6,8,-0.9,0.3,nt,-57,2.1
CC(=O)c1ccc(Oc2cc(C(F)(F)F)cnc2C(N)=O)cc1,-15,-3.4,1,12,5,-1.7,0.8,-1%,21,-1.1
CCOc1ccc(-c2nc(CCl)cs2)cc1,7,2.2,-1,9,8,-10,-2.4,1%,3,8.8
CC(C)C1=C2CCCCC2NC(=O)N1 (stereo not given),-18,1.4,-3,14,10,-2.0,0.7,7%,4,-2.6
COc1ccccc1P(=O)(Cc1ccccc1)c1ccccc1 (stereo not given),-7,0.2,-12,-5,-5,1.1,1.9,-6%,4,0.7
CN1CCN(NC(=S)Nc2ccccc2)CC1,-14,-3.1,12,7,4,-2.7,0.1,1%,0,-1.0
O=C(CNS(=O)(=O)c1ccc(Br)cc1)OCc1cc(=O)n2cc(Br)ccc2n1,-12,-0.3,0,nt,nt,nt,-0.7,4%,-29,5.5
c1ccc2c(Nc3nc4c(s3)CCCC4)cccc2c1,10,-1.5,40,nt,nt,nt,-2.0,-13%,5,nt
COc1ccc(C(CNC(=O)CSc2ccccc2C)N(C)C)cc1 (stereo not given),-8,6.5,4,0,-2,1.9,0.0,14%,2,2.8
COc1ccc(CC(=O)NNC(=O)c2cc(C)[nH]n2)cc1,nt,?,-9,1,4,-0.6,0.7,?,-1,-2.2
CCOC(=O)C1CCCN(c2c(NCCCN3CCCC(C)C3)c(=O)c2=O)C1 (stereo not given),2,2.4,10,1,10,-2.6,-0.3,3%,-9,-6.7
Cc1oc(C(C)(C)C)cc1C(=O)Nc1ccc(N2CCOCC2)cc1,6,-1.5,-4,nt,nt,nt,-0.5,nt,-3,1.5
CN1C(=O)CC(NNC(=O)c2ccc(Cl)cc2)C1=O (stereo not given),nt,-1.7,-26,nt,nt,nt,-0.2,4%,2,nt
Cc1cccc(OCC(=O)Nc2ccc(NC(=O)c3ccccc3)cc2)c1,-6,1.8,-16,6,9,0.7,1.8,5%,69,-0.2
COc1ccc(CCCC(=O)N/N=C\c2cccs2)cc1,-2,1.5,-3,-23*,-8.8*,7.0*,0.1,0%,-36,2.1
CC(=O)c1cccc(S(=O)(=O)NCC2CCCCC2)c1,2,-1.1,-22,nt,nt,nt,1.8,-5%,-46,nt
c1ccc(Cn2nnnc2C(c2cccs2)N2CCCCCC2)cc1 (stereo not given),5,?,29,nt,nt,nt,-0.2,6%,-9,nt
Cc1onc(-c2ccccc2)c1C(=O)NCc1ccco1,-6,-2.1,3,nt,nt,nt,0.2,19%,-1,nt
COCCn1c(SCC#N)nnc1-c1ccc([N+](=O)[O-])cc1,-3,5.9,-5,12,2,-0.9,-1.0,6%,-1,-0.3
O[C@@H]1[C@@H](O)C=C2CCN3Cc4cc5c(cc4[C@H]1C23)OCO5 (stereo not given in full),36,nt,nt,3,17,-3.7,0.5,nt,nt,0.2
COc1cc(-c2nc3cnccn3c2Nc2c(C)cccc2C)ccc1O,nt,52*,-10,nt,nt,nt,1.1,7%,0,nt

# Part of the list above, with tabs:
Structure	Beta cell apopt	RanGTP-Imp inh	T cruzi repl	Ecoli rRNA inh	Ecoli rRNA inh OD600	Ecoli rRNA inh RFP	A1 inh	Vif TR-FRET	Calb FLC	MLL AF4-AF9 inh
Cc1onc(-c2ccccc2)c1C(=O)NCc1ccco1	-6	-2.1	3	nt	nt	nt	0.2	19%	-1	nt
COCCn1c(SCC#N)nnc1-c1ccc([N+](=O)[O-])cc1	-3	5.9	-5	12	2	-0.9	-1.0	6%	-1	-0.3

# (list continues)
SMILES,Beta cell apopt,RanGTP-Imp inh,T cruzi repl,Ecoli rRNA inh,Ecoli rRNA inh OD600,Ecoli rRNA inh RFP,A1 inh,Vif TR-FRET,Calb FLC,MLL AF4-AF9 inh
COc1ccc(NC(=O)CCN2C(=O)c3ccccc3C2=O)cc1,-9,-3.0,-4,8,13,1.0,0.8,nt,-1,-2.9
CCc1nn(CCCC(=O)NCc2ccccc2Br)c(=O)c2cc3occc3n12,1,-1.1,8,4,4,-5.1,-0.6,nt,-4,-1.1
O=C(CCNC(=O)c1ccccc1Cl)NN=Cc1ccco1,-2,nt,nt,22,11,3.0,0.2,-2%,nt,5.1
Cc1cccc(NC(=O)c2cc(S(=O)(=O)c3ccccc3)ccc2Cl)c1,8,4.6,nt,nt,nt,nt,0.0,3%,12,nt
Cc1ccccc1-n1c(Cn2c(=O)sc3ccccc32)nnc1SCC(=O)Nc1nccs1,-1,nt,nt,6,3,2.0,1.0,16%,nt,-3.0
O=[N+]([O-])c1ccccc1S(=O)(=O)N1CCCC(C(F)(F)F)C1 (stereo not given),-7,1.9,-11,3,6,1.7,-1.0,-1%,-11,2.4
O=C(Nc1ccccc1N1CCCCC1)c1ccc(F)cc1,-5,-2.6,-1,nt,nt,nt,-0.1,-1%,16,nt
CCOC(=O)C1ON2CCCCC2C1(O)C(F)(F)F (stereo not given),nt,-1.2,3,13,9,0.7,0.5,2%,-4,-1.7
COc1ccccc1NC(=O)COC(=O)Cc1c[nH]c2ccccc12,-1,-7.0,-17,-17*,-1.2*,7.2*,1.1,0%,-7,4.7
O=c1oc2cc(O)ccc2s1,2,5.4,-36,nt,nt,nt,0.4,nt,-10,-10
CC(C)C(=O)Nc1nnn(C)n1,-3,-3.0,1,nt,nt,nt,0.1,0%,-17,nt
CCc1ccc(NC(=O)CCS(=O)(=O)c2ccc(Br)cc2)cc1,nt,-0.8,-1,13,11,1.2,0.0,11%,9,-8.0
CCN1CCN(C(=S)c2ccc(O)cc2)CC1,0,3.5,-11,24,19,2.7,1.2,12%,30,-5.2
C=CCc1cccc2cc(C(=O)NCc3ccc(C(=O)OCC)o3)c(=O)oc12,nt,3.5,4,nt,nt,nt,0.0,25%,-2,nt
CCN1CCN(C(c2ccccc2)c2nnnn2Cc2ccc(OC)cc2)CC1 (stereo not given),0,5.1,32,3,7,0.0,-0.6,-6%,-5,0.0

# Reprinted from the part before: 7 entries, then new ones.
SMILES,Beta cell apopt,RanGTP-Imp inh,T cruzi repl,Ecoli rRNA inh,Ecoli rRNA inh OD600,Ecoli rRNA inh RFP,A1 inh,Vif TR-FRET,Calb FLC,MLL AF4-AF9 inh
COc1ccccc1NC(=O)COC(=O)Cc1c[nH]c2ccccc12,-1,-7.0,-17,-17*,-1.2*,7.2*,1.1,0%,-7,4.7
O=c1oc2cc(O)ccc2s1,2,5.4,-36,nt,nt,nt,0.4,nt,-10,-10
CC(C)C(=O)Nc1nnn(C)n1,-3,-3.0,1,nt,nt,nt,0.1,0%,-17,nt
CCc1ccc(NC(=O)CCS(=O)(=O)c2ccc(Br)cc2)cc1,nt,-0.8,-1,13,11,1.2,0.0,11%,9,-8.0
CCN1CCN(C(=S)c2ccc(O)cc2)CC1,0,3.5,-11,24,19,2.7,1.2,12%,30,-5.2
C=CCc1cccc2cc(C(=O)NCc3ccc(C(=O)OCC)o3)c(=O)oc12,nt,3.5,4,nt,nt,nt,0.0,25%,-2,nt
CCN1CCN(C(c2ccccc2)c2nnnn2Cc2ccc(OC)cc2)CC1 (stereo not given),0,5.1,32,3,7,0.0,-0.6,-6%,-5,0.0
C=C(C)CSc1cc(C)nc2c(-c3ccccc3)c(C)nn12,7,0.7,36,-49*,-33*,-2.5*,-0.2,3%,60,9.6
COc1ccc(N=C2SC(CC(=O)Nc3ccc(OC)cc3OC)C(=O)N2C)cc1 (stereo not given),7,5.4,30,nt,nt,nt,0.0,5%,17,nt
Cc1cc(C(=O)Nc2cccc([N+](=O)[O-])c2C)cs1,-2,1.7,-7,1,-5,-0.5,0.4,nt,0,-0.1
COc1ccc(Cl)cc1Nc1nc(C)nc2c1nnn2Cc1ccccc1,-5,-2.3,21,-1,7,-0.8,-0.5,-9%,-1,2.6
CCC(=O)/C=C1/Sc2ccc(OC)cc2N1CCO,-4,0.0,-16,6,-8,0.9,-0.1,5%,29,-5.8
CCN1C(=O)C(=O)N(CC(=O)N(C)CC(=O)Nc2ccccc2Cl)C1=O,-5,-0.1,6,11,11,2.4,-0.4,-3%,nt,-2.0
C(=N\Nc1nncn1/N=C/c1ccco1)/c1ccco1,-3,-7.0,-11,0,-3,-5.9,-0.5,71%,1,1.1
